# High-throughput results (PubChem)
# VDR inhibitor: inhibitors of human vitamin D receptor. AID 504847. VDR-SRC2-3 peptide fluorescence polarization, 2 h. P11473. Potency, µM, for inactives: max response, negative = inhibition, hits mostly inhibitors. actives 0.93% (n = 400,000); active means well fitted inhibition curve with a large enough effect; inconclusive means small, poorly fitted or top-dose-only effect, or another doubt; inactive means no such curve, though single readings can be large or run the other way; further: series mostly up to about 120 µM
# Target sequence (P11473 whole entry, looked up): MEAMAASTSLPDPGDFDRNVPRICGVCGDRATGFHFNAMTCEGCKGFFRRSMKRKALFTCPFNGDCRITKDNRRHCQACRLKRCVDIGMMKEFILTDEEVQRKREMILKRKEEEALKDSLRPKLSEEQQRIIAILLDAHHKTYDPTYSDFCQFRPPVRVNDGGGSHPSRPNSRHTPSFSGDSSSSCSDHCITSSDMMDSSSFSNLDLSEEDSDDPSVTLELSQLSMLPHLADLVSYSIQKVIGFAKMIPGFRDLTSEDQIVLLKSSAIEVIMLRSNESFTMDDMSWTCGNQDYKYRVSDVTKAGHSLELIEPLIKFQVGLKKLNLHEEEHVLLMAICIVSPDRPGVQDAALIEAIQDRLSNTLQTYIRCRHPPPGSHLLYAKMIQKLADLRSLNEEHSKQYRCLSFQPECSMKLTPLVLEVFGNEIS
#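 Measured by FP: displacement of SRC2-3 coactivator peptide from VDR by library compounds, following a two-hour ambient incubation.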
# An asterisk follows results filed as active; u = inconclusive. On the % scale 0 is the no-effect control and ±100 the full control effect; potency means the concentration at half of the fitted maximal effect. The list is partial; the hit share may differ from the screen's.
SMILES,VDR inhibitor
Cc1ccccc1-c1nn2c(=O)cc(CN3CCN(S(=O)(=O)c4ccc(Cl)cc4)CC3)nc2s1,9.6%
CN(C)c1ccc(NC(=O)Cn2cc(S(=O)(=O)Cc3cccc(Cl)c3)c3ccccc32)cc1,-20.8%
Cc1cccc(NC2=NC3(CCCCC3)N=C(N)N2)c1C,u
O=C(CN1CCCc2ccccc21)N/N=C/c1ccccc1O,5.7%
CCOC(=O)Nc1ccc2c(c1)N(C(=O)CNC)c1ccccc1CC2,-5.5%
COc1cc(/C=N/O)cc(Br)c1OCc1ccc(Cl)cc1,0.1%
Cc1cc(S(=O)(=O)N2CCOCC2)ccc1OCC(=O)NCCCn1ccnc1,-13.7%
COc1ccc(C(=O)/C=C/c2ccc(N(C)C)cc2)c(OC)c1,-21.7%
CC(C)(C)NC(=O)CCC1COc2ccccc2O1 (stereo not drawn),10.8%
O=C(CCc1c[nH]c2ccccc12)NCc1ccco1,-22.4%
N#Cc1c(Cn2cncn2)nc(=O)n(-c2ccc(Cl)cc2)c1N,-3.5%
CC(=O)c1ccc(Nc2cc(C)nc3c(C)cc(C)cc23)cc1,0.5%
COc1ccc(CC(=O)Nc2ccc(C(=O)Nc3nccs3)cc2)cc1OC,2.3%
CC(=O)c1c(C)[nH]c(C(=O)CSc2nnc(-c3ccccc3)n2Cc2ccc3c(c2)OCO3)c1C,13.0%
COc1cc(OC)cc(C(=O)NC(C(=O)Nc2ccc3c(c2)OCCO3)C(C)C)c1 (stereo not drawn),1.2%
Cc1ccccc1C(=O)Nc1ccc2c(c1)OCO2,3.8%
COc1ccc(-c2cc(C3CCN(c4ncccc4[N+](=O)[O-])CC3)[nH]n2)cc1,2.0%
CC(=O)c1nnn(-c2nc(C#N)nc(N3CCOCC3)n2)c1C,3.7%
Nc1c(N(CCC2=CCCCC2)C(=O)c2ccco2)c(=O)[nH]c(=O)n1Cc1ccccc1,-10.9%
O=C(c1ccccn1)N1CCCC(N2CCN(c3ccc(F)cc3)CC2)C1 (stereo not drawn),5.5%
O=C(/C=C/c1cccc([N+](=O)[O-])c1)N1CCN(c2ccccn2)CC1,-5.4%
C=CCN1C=C2C(=O)C(C)(OC(=O)CCc3ccccc3)C(=O)C=C2C=C1c1ccc(C#N)cc1 (stereo not drawn),-17.4%
COc1ccc(NC(=O)CCNC(=O)Cn2ccc3ccccc3c2=O)cc1OC,-17.1%
CN(C)S(=O)(=O)c1ccc(NC(=O)C2CCCN(C(=O)c3ccc(Cl)cc3)C2)cc1 (stereo not drawn),0.7%
CCc1cnc2c(c1SCC(=O)NCc1ccccc1Cl)c(=O)n(C)c(=O)n2C,17.7%

# Structural class, those above with four or more nitrogen atoms (11)
SMILES,VDR inhibitor
Cc1ccccc1-c1nn2c(=O)cc(CN3CCN(S(=O)(=O)c4ccc(Cl)cc4)CC3)nc2s1,9.6%
Cc1cccc(NC2=NC3(CCCCC3)N=C(N)N2)c1C,u
Cc1cc(S(=O)(=O)N2CCOCC2)ccc1OCC(=O)NCCCn1ccnc1,-13.7%
N#Cc1c(Cn2cncn2)nc(=O)n(-c2ccc(Cl)cc2)c1N,-3.5%
CC(=O)c1c(C)[nH]c(C(=O)CSc2nnc(-c3ccccc3)n2Cc2ccc3c(c2)OCO3)c1C,13.0%
COc1ccc(-c2cc(C3CCN(c4ncccc4[N+](=O)[O-])CC3)[nH]n2)cc1,2.0%
CC(=O)c1nnn(-c2nc(C#N)nc(N3CCOCC3)n2)c1C,3.7%
Nc1c(N(CCC2=CCCCC2)C(=O)c2ccco2)c(=O)[nH]c(=O)n1Cc1ccccc1,-10.9%
O=C(c1ccccn1)N1CCCC(N2CCN(c3ccc(F)cc3)CC2)C1 (stereo not drawn),5.5%
O=C(/C=C/c1cccc([N+](=O)[O-])c1)N1CCN(c2ccccn2)CC1,-5.4%
CCc1cnc2c(c1SCC(=O)NCc1ccccc1Cl)c(=O)n(C)c(=O)n2C,17.7%

# Remaining list, next part
SMILES,VDR inhibitor
O=C(CCCN1C(=O)/C(=C/c2ccccc2Cl)SC1=S)N1CCOCC1,-1.5%
CC(C)[C@H](NC(=O)NCc1ccc(F)cc1)C(=O)O,-17.2%
COc1cc(S(=O)(=O)NCc2cccnc2)c(OC)cc1Br,-7.1%
CCOC(=O)C(CSCC(=O)c1ccc(Cl)cc1Cl)NC(=O)OC(C)(C)C (stereo not drawn),-13.8%
CCCSc1nnc(CSc2nc(C)cc(C)n2)n1C,-24.7%
O=C(N/N=C\c1cccnc1)c1ccc(Br)s1,-0.5%
Cc1ccccc1/C=N/Nc1nc2ccccc2[nH]1,8.4%
CC(OC(=O)/C=C/c1ccccc1Cl)C(=O)NC1CCCCC1C (stereo not drawn),-27.1%
Cc1cccc(NC(=O)CSc2nc(=O)n3ccccc3n2)c1C,-1.3%
CCc1nc(SCC(=O)O)c(C#N)cc1C,-8.2%
Cc1ccc(NC(=O)CNC(=O)Cn2c(C)cc3ccccc3c2=O)cc1F,-8.9%
CCOC(=O)c1ccccc1S(=O)(=O)N1CCN(c2nc(-c3cccs3)nc3ccccc23)CC1,0.0%
COc1c2c(nc3ccccc13)O[C@H]([C@@](C)(O)CO)C2,4.0%
CCc1ccc(NC(=S)N2CCC(NC(=O)c3ccccc3OC)CC2)cc1,4.9%
COc1ccc2c(OC)cc(=O)n(C)c2c1,2.8%
O=[N+]([O-])c1ccc(NC(=S)N2CCc3ccccc32)cc1,-9.3%
Cc1cc(C)nc(/N=C(\N)Nc2ccc(S(=O)(=O)O)cc2)n1,-7.5%
C/C(Cn1cnc([N+](=O)[O-])n1)=N\NC(=O)c1ccccc1O,4.7%
CC(=O)Nc1nc(NC(=O)/C=C/c2ccccc2)n(-c2ccccc2)n1,-18.6%
Cc1ccc([N+](=O)[O-])c(NC(=O)COC(=O)C2CC3CCCC(C2)C3=O)c1C (stereo not drawn),-21.7%
Cc1ccc(OCCC(=O)OCC(=O)N2CCN(S(=O)(=O)c3ccc(C)cc3)CC2)cc1,-9.9%
Cc1ccc(-c2nnc(-c3cccc(NC(=O)c4cccs4)c3)o2)cc1,16.1%
CC(C)(C)c1cc(C(=O)O)nn1-c1ccccc1,2.3%
COc1ccc(CCNC(=O)COC(=O)/C=C/c2ccc(OC)cc2OC)cc1,-13.9%
CN(c1ccc(C(=O)N2CCN(Cc3ccc4c(c3)OCO4)CC2)cc1)S(C)(=O)=O,-4.7%

# The listing continues.
SMILES,VDR inhibitor
CCOC(=O)c1sc(NC(=O)CSc2nc3cccnc3n2C)nc1C,-5.7%
O=C(O)c1cccc(NS(=O)(=O)c2cccc3cccnc23)c1,u
COc1ccc2c(c1OC)C(=O)OC2Nc1nc2ccccc2s1 (stereo not drawn),2.8%
CC1CC(C)(C)n2c(O)c(N=NC(N)=S)c3cccc1c32 (stereo not drawn),-3.6%
Cc1ccc(S(=O)(=O)NCC(=O)OCC(=O)N(Cc2ccccc2)C(C)(C)C)cc1,-1.9%
COc1ccc(N2CCN(c3ccc(C(N)=O)cc3[N+](=O)[O-])CC2)cc1,12.5%
CC1CCCN(S(=O)(=O)c2ccc(C(=O)Nc3ccccc3-c3nc4ccccc4[nH]3)cc2)C1 (stereo not drawn),-9.0%
CC(=O)c1[nH]c(C)c(C(C)=O)c1C,3.6%
O=C(c1cnn2c1NC(c1ccc(Br)cc1)CC2C(F)(F)F)N1CCN(C23CC4CC(CC(C4)C2)C3)CC1 (stereo not drawn),12.6%
Cc1ccc(C(=O)Cn2cccn2)cc1,-2.8%
Cc1c(C(=O)Nc2c3c(nn2C(C)(C)C)CS(=O)(=O)C3)cccc1[N+](=O)[O-],u
COc1ccc(/C=C2/SC(=O)N(CCC(=O)Nc3ccccc3C(=O)O)C2=S)cc1,-19.0%
COc1ccc(C(=O)N/N=C(\C)CC(=O)Nc2ccc3c(c2)OCCO3)c(OC)c1,-21.8%
COc1ccc(-n2c3c(c(=O)[nH]c2=O)C(C(F)(F)F)(C(F)(F)F)N=C(CC(C)C)N3)cc1,-3.6%
CCC(C(=O)NC1CCCC1)N(C(=O)Cn1nnc(-c2ccc(C)o2)n1)c1cccc(O)c1 (stereo not drawn),1.8%
Cc1ccc(C(=O)N2CCN(S(=O)(=O)N3CCCCCC3)CC2)cc1,-6.4%
Cc1ccc(NC(=O)CCC(=O)N/N=C/c2ccco2)c(C)c1,9.9%
Cc1cc(O)c2ccccc2c1O,35.5µM*
CC(=O)c1ccc(N2CCN(C(=O)C3CCN(S(=O)(=O)c4ccc5c(c4)CC(C)N5C(C)=O)CC3)CC2)cc1 (stereo not drawn),3.5%
Cc1cc(S(=O)(=O)Nc2c(NC3CCCCC3)c3ccccc3oc2=O)ccc1F,-9.9%
Cc1c(C(O)CN2CCC(C(N)=O)CC2)c2ccccc2n1C (stereo not drawn),6.2%
Cc1ccc(Sc2c(C)nn(-c3ccccc3)c2OC(=O)CC(C)C)cc1,79.4µM*
Cc1ccc(C(=O)COC(=O)c2cc(-c3ccc(Cl)cc3)nc3ccccc23)cc1,-12.3%
Cc1ccc(C(C)C)c(OCC(=O)NC(=S)Nc2ccccc2N2CCOCC2)c1,5.8%
Cc1cc(C)n2nc(C(=O)OCC(=O)N(Cc3ccccc3)C(C)C)nc2n1,-7.3%

# (continued)
SMILES,VDR inhibitor
CCCN(Cc1ccc(N(C)C)cc1)CC1CC1,-4.2%
COC(=O)[C@@H](NC(=O)O[C@@H]1C(=O)c2cc(OC)ccc2O[C@H]1c1cccc(OC)c1)C(C)C,1.0%
O=C(COC(=O)C1CC1)NCCc1ccc(Cl)cc1,-2.4%
O=C(COC(=O)/C=C/c1ccco1)NCc1ccc2c(c1)OCO2,12.2%
CCOC(=O)C1CCN(C(=O)C2(NC(=O)Nc3ccccc3Cl)CCCCC2)CC1,-2.0%
CN(CCc1ccccc1)C(=O)c1cccc(NC(=O)Cc2cccc(NC(=O)C3CCN(C(=O)C4CCC4)CC3)c2)c1,4.6%
CC(=O)Nc1ccc(NC(=O)COc2c(C)cc(Br)cc2C)cc1,-15.7%
CCOC(=O)CC(=O)CSc1nc2c(c(C)c1C#N)CCC2,6.4%
Cc1cc(Oc2ccc(Cl)cc2)nc(SCC(=O)c2ccccc2)n1,-4.6%
COc1ccc(-n2nc(C(=O)Nc3cc(C)ccn3)c3c4ccccc4n(C)c3c2=O)cc1,-10.1%
CCOc1ccc(CCNC(=O)Cn2c(-c3cccs3)cc3ccccc32)cc1,2.9%
CCn1c(SCC(N)=O)nc2c(c1=O)C1(CCCC1)Cc1ccccc1-2,18.7%
Cc1ccc(CSc2ncc(Cl)c(C(=O)Nc3nnc(C)s3)n2)cc1,5.5%
COc1cc(NC(=O)CN2C(=O)COc3ccc(S(=O)(=O)NC4CCCC4)cc32)cc(OC)c1,-1.2%
CC(C)CC(=O)Nc1c2c(nn1-c1ccc(F)cc1)CS(=O)(=O)C2,9.2%
CCOC(=O)N1CCC(NC(=O)c2ccc(CNS(=O)(=O)c3ccc(F)cc3)cc2)CC1,-2.5%
CCCCOC(=O)CNc1n[nH]c(=S)[nH]c1=O,-7.9%
CN(C)S(=O)(=O)Oc1cc(Cl)ccc1C(=O)Nc1ccc(F)cc1F,-14.5%
Cc1cc(C)c2cc(CN(Cc3nnnn3Cc3ccc(F)cc3)C3CCCC3)c(=O)[nH]c2c1,3.2%
O=C(Cc1ccccc1)NCC1OCCc2ccccc21 (stereo not drawn),-4.7%
Fc1ccc(C2=NCCC(c3ccccc3)O2)cc1 (stereo not drawn),u
CCNCCC(=O)N1c2ccccc2Sc2ccc(NC(=O)OCC)cc21,-7.1%
Cc1cccc(NC(=O)c2cccc(NC(=O)c3ccco3)c2)c1C,0.1%
CCn1cnc2scc(-c3ccccc3)c2c1=O,-17.6%
Cc1nn2c(=O)cc(COC(=O)COc3ccccc3C)nc2s1,1.0%

# 6 compounds out of the list above, arranged by the number in VDR inhibitor, descending.
SMILES,VDR inhibitor
CCn1c(SCC(N)=O)nc2c(c1=O)C1(CCCC1)Cc1ccccc1-2,18.7%
CC(C)CC(=O)Nc1c2c(nn1-c1ccc(F)cc1)CS(=O)(=O)C2,9.2%
Cc1cc(C)c2cc(CN(Cc3nnnn3Cc3ccc(F)cc3)C3CCCC3)c(=O)[nH]c2c1,3.2%
CCOc1ccc(CCNC(=O)Cn2c(-c3cccs3)cc3ccccc32)cc1,2.9%
Cc1cccc(NC(=O)c2cccc(NC(=O)c3ccco3)c2)c1C,0.1%
COc1ccc(-n2nc(C(=O)Nc3cc(C)ccn3)c3c4ccccc4n(C)c3c2=O)cc1,-10.1%

# A draw from above in order of formula weight, smallest number first:
SMILES,VDR inhibitor
CCCN(Cc1ccc(N(C)C)cc1)CC1CC1,-4.2%
O=C(COC(=O)/C=C/c1ccco1)NCc1ccc2c(c1)OCO2,12.2%
CCn1c(SCC(N)=O)nc2c(c1=O)C1(CCCC1)Cc1ccccc1-2,18.7%

# Individual results from the entries so far:
# Value for CC(=O)c1ccc(N2CCN(C(=O)C3CCN(S(=O)(=O)c4ccc5c(c4)CC(C)N5C(C)=O)CC3)CC2)cc1 (stereo not drawn) under VDR inhibitor: 3.5%
# Value for O=C(c1ccccn1)N1CCCC(N2CCN(c3ccc(F)cc3)CC2)C1 (stereo not drawn) under VDR inhibitor: 5.5%
# Value for CN(c1ccc(C(=O)N2CCN(Cc3ccc4c(c3)OCO4)CC2)cc1)S(C)(=O)=O under VDR inhibitor: -4.7%
